LANA-H2B inh: blocks KSHV LANA binding to histone H2A/H2B | cell-free LANA-H2A/H2B peptide, fluorescence polarization | inhibition, % (no concentration beside the values) | hit rate 0.6% among 320,000 | AID 2629; in the data active = inhibition mostly above about 10%, no sharp cut-off; inactive = mostly below about 6.7%;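 also: stock transfer was 7.5 nL into about 10 µL; 0% = median of vehicle wells and 100% = median of positive control wells; one replicate is shown; the record names a cut of 25% in any replicate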
ALR H2O2 inh: inhibitors of human sulfhydryl oxidase ALR | P55789 | purified ALR, DTT oxidation, H2O2 HRP-luminol luminescence | inhibition, % (test concentration not listed) | hit rate 3.8% among 290,000 | AID 485317;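 active = mean and each replicate at 75% or more; inconclusive = only one of the two met; inactive = neither met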;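 also: stock transfer was 7.5 nL into about 7.5 µL; 0% = neutral wells and 100% = wells with inactivated enzyme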
Target sequence (P55789 whole entry, looked up): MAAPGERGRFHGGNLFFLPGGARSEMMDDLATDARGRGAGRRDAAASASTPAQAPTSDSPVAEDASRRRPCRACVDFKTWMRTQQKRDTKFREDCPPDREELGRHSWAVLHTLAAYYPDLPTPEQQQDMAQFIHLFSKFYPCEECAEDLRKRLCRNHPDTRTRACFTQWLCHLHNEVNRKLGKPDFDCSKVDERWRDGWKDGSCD
T cruzi inh: blocks replication of Trypanosoma cruzi | T. cruzi beta-gal in NIH3T3, luminescence, 90 h | inhibition, % (no concentration beside the values) | hit rate 1.4% among 300,000 | AID 1885;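 active = mean inhibition across valid replicates above about 55%, limit read from the data; inconclusive = mean below that limit but half or more replicates reach it; inactive = mean below it, under half of replicates reach it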;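 also: signal also drops with host cell toxicity which is not excluded here; 0% = plate median of DMSO wells and 100% = zero luminescence signal; higher percent means less beta-gal luminescence so fewer parasites; stock transfer was 50 nL into about 50 µL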
rRNA inh HTS: inhibitors of bacterial rRNA selective over humanized ribosomes; E. coli WT GFP vs humanized-ribosome RFP mutants, fluorescence, 24 h; stronger effect = lower value; DMSO median 0, no signal -100; GFP signal change (wild-type ribosome), % (concentration not given with the values); hit rate 1.6% among 350,000; AID 720706;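 active = significant combined selectivity score with lowered wild-type GFP, culture density cut under 30%, mutant RFP and density less affected; inactive = any of these conditions unmet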; also: one replicate is shown; some compounds called inactive have numbers as strong as hits
A1 inh: inhibitors of the anti-apoptotic protein A1, read as caspase activation; MEF A1-2A-BIM cells, Caspase-Glo 3/7 luminescence, 3 h; percent of clofoctol response, vehicle zero; caspase activation, % (concentration not given with the values); hit rate 0.066% among 330,000;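 active = over half of replicate activation scores above 10%, or exactly half above 10 with the replicate mean above 10; inconclusive = replicate mean below 10 yet half the replicates above 10; inactive = over half of replicates below 10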;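 also: wells of about 30 µL received 50 nL stock; many hits fall short of the cut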
B2AR ag: activates human beta-2 adrenergic receptor causing internalization. P07550. Am2.2-beta2AR cells, FAP receptor internalization, flow cytometry; reference of the scale not given here. response, % (concentration not given with the values). hit rate 0.43% among 340,000;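 active = response above a set limit, near 3 SD of response in nonfluorescent compounds, cut at about 42% in these data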;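 also: stock transfer was 100 nL into about 11 µL; a reference agonist was the positive control; negative values mostly stem from fluorescent compounds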
Target sequence (P07550 whole entry, looked up): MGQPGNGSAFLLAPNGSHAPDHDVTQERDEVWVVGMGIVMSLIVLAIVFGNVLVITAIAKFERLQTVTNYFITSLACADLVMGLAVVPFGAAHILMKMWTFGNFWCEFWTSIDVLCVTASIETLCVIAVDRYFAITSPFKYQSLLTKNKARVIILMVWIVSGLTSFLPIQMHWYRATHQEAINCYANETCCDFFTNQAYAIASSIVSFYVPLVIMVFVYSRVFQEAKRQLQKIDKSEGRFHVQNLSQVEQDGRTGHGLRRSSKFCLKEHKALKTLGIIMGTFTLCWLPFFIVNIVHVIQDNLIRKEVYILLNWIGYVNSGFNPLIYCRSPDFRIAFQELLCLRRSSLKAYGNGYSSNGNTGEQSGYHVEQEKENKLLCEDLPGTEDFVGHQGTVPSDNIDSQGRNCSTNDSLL
Beta apoptosis: beta cell apoptosis inhibition | protection from apoptosis, % (no concentration beside the values) | INS-1E cytokine-induced death, ATP luminescence, 48 h; percent of positive-control rescue, neutral wells zero | hit rate 0.8% among 300,000;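 active = all replicates at 75% or more, or half of them and the mean; inconclusive = half reach 75% but not the mean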;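 also: 0% = cytokine-treated negative control wells and 100% = positive control rescue; higher means more ATP so stronger rescue from cytokine killing; wells of about 40 µL received 100 nL stock; the first replicate is given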
Calb FLC: C. albicans growth modulation with fluconazole; C. albicans CaCi-2 (fluconazole-resistant clinical isolate) + fluconazole, Alamar Blue growth, 48 h; growth inhibition, % (no concentration beside the values); hit rate 0.57% among 300,000; AID 1979;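 active = most replicates above 75%; inconclusive = exactly half above 75%; inactive = most below 75%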;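 also: all wells also contain fluconazole at 8 µg/ml as a sub-toxic cotreatment; 0% = median of DMSO wells and 100% = median of geldanamycin control wells; wells of about 8 µL received 7.5 nL stock; the first replicate is given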
rRNA inh HTS OD600: second read-out of rRNA inh HTS, no call of its own (marks repeat the call); OD600 change, %; measured here: OD600 growth;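 optical density of the mix in the first replicate; 0 = DMSO median and -100 = no signal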
rRNA inh HTS RFP: second read-out of rRNA inh HTS, no call of its own (marks repeat the call); RFP signal change, %; measured here: RFP humanized mutant strains;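 first replicate; 0 = DMSO median and -100 = no signal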
Numbers without * were called inactive; ? = inconclusive; nt = no result given.

SMILES	LANA-H2B inh	ALR H2O2 inh	T cruzi inh	rRNA inh HTS	rRNA inh HTS OD600	rRNA inh HTS RFP	A1 inh	B2AR ag	Beta apoptosis	Calb FLC
CSc1nc(N)nc2c1ncn2CC(=O)NCc1ccccc1	-1.6	nt	nt	18	21	4.7	0.3	6	-9	nt
O=C(Nc1nnc(-c2ccc(Cl)cc2)o1)Nc1ccccc1F	1.8	-3	-1	3	4	-4.5	0.0	-1	-10	0
CCOc1ccccc1C(=O)NC1CC2CCCC(C1)N2Cc1ccc(C)cc1 (stereo not drawn)	5.1	-17	51	3	6	1.9	-0.3	-15	13	-10
O=C(Nc1cccnc1N1CCOCC1)c1cc2ccccc2oc1=O	5.1	-5	-8	nt	nt	nt	0.6	-17	3	-1
CN1C(=O)N(C)C2C1N(C)S(=O)(=O)N2C (stereo not drawn)	-4.1	0	-26	17	10	-2.9	1.8	-8	-6	-9
CC(/C=N/n1c(-c2cccnc2)n[nH]c1=S)=C\c1ccco1	1.0	-3	-7	nt	nt	nt	1.4	-10	7	11
CCOc1cc(C(=O)Nc2ccc3c(c2)OCO3)ccc1OCCOc1ccccc1Cl	-0.8	0	-13	nt	nt	nt	-1.0	2	8	-35
CC(C)NC(=S)N=Nc1c(O)[nH]c2ccc(C(C)C)cc12	2.1	nt	59*	-5	-5	-1.5	0.1	-3	8	1
C/C(=N\OC(=O)NC(C)C)c1sc(-c2ccccc2)nc1C	-0.5	nt	24	nt	nt	nt	-6.0	0	5	-4
COc1cccc(/C=N/NC(=S)NCCc2ccccc2)c1	3.9	0	7	-10	-39	2.7	-1.1	-2	2	-3
NC(=S)N/N=C/c1ccc(-c2cc(Cl)c(Cl)cc2Cl)o1	3.1	-2	64*	-27	-25	-5.8	-1.2	4	10	-27
COc1cccc(-c2cc(C(=O)NCc3ccc(Cl)cc3)no2)c1	-5.0	-4	nt	nt	nt	nt	-1.0	-19	-2	3
Cn1c(=O)[nH]c(=O)c2c1nc(Br)n2Cc1cccc(Br)c1	-0.6	-3	-4	24	20	2.6	0.3	1	34	-21
CCN1CCN(c2ccc(S(=O)(=O)N3CCCCC3)cc2NC(=O)c2cccc(OC(F)F)c2)CC1	1.0	-2	47	-5	-7	11	-0.4	3	2	-4
Cc1ccc(NC(=O)CN2C(=O)S/C(=C\c3ccc(OCC(=O)O)c(Br)c3)C2=O)cc1	-5.1	43	-3	6	11	-1.5	0.1	-4	0	7
N/C(CC(=O)NCCOc1ccccc1)=N\O	-2.8	-8	-17	nt	nt	nt	-0.4	5	-3	17
Cc1cc(=O)n2nc(N3CCCC(C(=O)Nc4ccc(C)c(C)c4)C3)sc2n1 (stereo not drawn)	-2.2	-5	5	-12	-11	1.4	-0.4	-3	7	3
CC1CCCCN1CC(=O)Nc1ccc2c(c1)OCO2 (stereo not drawn)	-0.9	-3	nt	26	17	1.0	1.9	-2	1	nt
CCOc1ccccc1C(=O)N/N=C/c1coc2ccc(Cl)cc2c1=O	3.6	?	nt	8	5	0.4	0.3	-8	1	-2
Cc1nn(S(=O)(=O)c2ccc(C(C)(C)C)cc2)c(C)c1S(=O)(=O)N1CCOCC1	1.5	1	-9	-2	5	-3.5	1.3	6	-4	-5
CCc1ccc2nc(N(CCCN(C)C)C(=O)c3ccc4c(c3)OCCO4)sc2c1	2.7	-27	55*	-22*	-7.5*	6.9*	-0.1	10	-3	-11
O=C(NNc1ccc(O)cc1)c1ccc(Br)cc1	5.6	99*	42	8	5	1.5	0.4	-4	-6	95*
CCCCNC(=O)c1ccc(/C=C2\Oc3ccccc3N(C)C2=O)cc1	-0.9	1	2	-5	8	-3.5	-0.6	-13	9	-15
CC(OC(=O)CCCN=C1NS(=O)(=O)c2ccccc21)C(=O)c1ccccc1 (stereo not drawn)	6.2	14	-18	9	5	2.0	0.0	-1	-2	-5
O=c1[nH]c2ccsc2c(=O)n1CCO	-5.7	-6	14	15	15	2.8	-0.6	15	-6	1
COc1ccc(S(N)(=O)=O)cc1C(=O)N(C)CC(=O)Nc1ccc(N2CCOCC2)cc1	-4.3	24	-8	2	12	-0.2	-0.6	-6	0	0
CC1CN(C(=O)c2cc(S(=O)(=O)N(C)c3ccc(F)cc3)ccc2Cl)CC(C)O1 (stereo not drawn)	-7.5	11	16	7	6	0.2	-0.7	3	-7	-11
CCOC(=O)c1ccc(-n2c(C)ccc2C)cc1	2.5	10	-3	nt	nt	nt	0.6	13	-2	-9
O=C(CN1C(=O)NC2(CCc3ccccc32)C1=O)Nc1ccccc1Cl (stereo not drawn)	-0.2	6	nt	-5	-2	0.0	-0.3	0	2	nt
O=C(CCCSc1nc(-c2ccco2)cc(C(F)(F)F)n1)NCC1CCCO1 (stereo not drawn)	-0.2	-2	10	nt	nt	nt	0.6	-10	-11	25
Cc1ccc(S(=O)(=O)NCCC(=O)N2CCCCCCC2)cc1C	-2.5	-1	-3	-6	-8	-2.1	0.4	-1	4	-1
COc1ccc(-c2c(-c3cc(OC)c(OC)c(OC)c3)noc2C)cn1	-4.8	-11	-9	nt	nt	nt	-0.1	13	19	13
CCOc1cc(/C=C2\N=C(C)OC2=O)cc(Br)c1OCC(=O)OC	0.4	nt	-21	10	17	-1.2	-0.9	13	-2	14
CCN1C(=O)/C(=C2\C=Cc3ccccc3N2CC)OC1=S	-2.9	nt	44	7	4	0.0	-0.2	-7	7	4
O=C(Cc1ccc(Br)cc1)NNC(=O)c1cccs1	3.0	2	nt	4	7	0.9	0.2	5	-5	nt
CC(C)=CCN1CCN(Cc2nc(C(C)C)cs2)CC1CCO (stereo not drawn)	0.8	2	20	8	6	-3.8	0.2	17	-12	-10
Cc1cc(C)nc(-n2nc(C)c(Oc3ccccc3O)c2C)n1	-4.0	46	-12	nt	nt	nt	-0.7	-3	-1	19
CCC(C)(C)c1ccc(Oc2cccc(C(=O)O)c2)cc1	4.0	39	12	-8	-5	-7.3	0.1	-28	-2	20
NC(=O)[C@@H]1CC2(CC(c3cccc(NC(=O)[C@H]4CCC(=O)N4)c3)=NO2)CN1C(=O)COc1ccc(Cl)cc1 (stereo partly drawn)	6.2	nt	-5	0	13	5.5	1.0	-3	2	-3
CC1CCCCN1C(=O)Cn1cnc2cc([N+](=O)[O-])ccc2c1=O (stereo not drawn)	0.6	nt	-5	12	1	-1.8	0.4	3	-1	14
CCN(CC)CCNC(=O)c1ccc(N2CCCCC2)c(NS(=O)(=O)c2ccc(C)cc2)c1	2.7	26	14	nt	nt	nt	0.2	28	0	?
CCc1cccc(CC)c1NC(=S)/C(=C(\[O-])c1ccc(Cl)s1)[n+]1ccccc1	-4.0	-5	-2	-2	-9	3.9	0.7	3	2	-14
c1ccc(-c2nnc(CN3CCCCC3)o2)cc1	-2.5	1	3	9	17	-2.1	0.2	-1	5	-3
CCOc1ccc(OCC)c(NC(=O)CCS(=O)(=O)c2ccc(Br)s2)c1	0.7	-16	-1	nt	nt	nt	0.1	8	-6	-7
CCOc1ccc(OCC(=O)OCC(=O)NNC(=O)c2ccc([N+](=O)[O-])cc2)cc1	-0.8	-5	-5	12	9	-0.5	0.6	-3	-4	nt
c1ccc(-c2noc(CN3CCCC(OCc4ccccn4)C3)n2)cc1 (stereo not drawn)	2.3	nt	-2	6	0	3.1	0.4	-2	-1	-4
CCN1C(=O)/C(=C2\Sc3ccccc3N2CC)OC1=S	-3.7	3	22	3	10	-0.3	4.1	20	0	5
O=C(Nc1ccccc1-c1ccccc1)c1ccccc1Br	6.6	1	2	-15	-19	-0.9	2.4	-8	3	10
Cc1ccc(S(=O)(=O)N(C)C)cc1NC(=S)NC(C)CCC(C)C (stereo not drawn)	nt	nt	-16	nt	nt	nt	0.0	1	-9	-4
O=[N+]([O-])c1cccc(P(=O)(O)c2cccc([N+](=O)[O-])c2)c1	-1.0	0	-19	21	1	0.6	0.2	-6	-6	4
COc1ccc(-n2nccc2-c2nn(-c3cccc(OC)c3)c(=O)n(C)c2=O)cc1	-1.4	-4	19	nt	nt	nt	0.8	-4	-7	-2
CCC(C)C1Nc2ccc(C(=O)NCc3ccc4c(c3)OCO4)cc2NC1=O (stereo not drawn)	0.5	5	8	-9	-8	-1.7	-0.8	4	-1	-49
CC1(C)CC(NC(=O)C23CCC(C)(C(=O)C2)C3(C)C)CC(C)(C)N1 (stereo not drawn)	0.4	-2	8	nt	nt	nt	0.4	5	-7	-10
Cc1ccc(C(=O)C(C)OC(=O)CCN=C2NS(=O)(=O)c3ccccc32)cc1 (stereo not drawn)	1.5	nt	-1	1	0	-1.8	0.0	-4	1	-2
O=C(O/N=C1\CCCc2ccccc21)c1cccc(Cl)c1	0.1	0	-20	nt	nt	nt	-0.7	3	nt	-12
O=C(CCc1ccccn1)N1CCCC(Nc2cccc(F)c2)C1 (stereo not drawn)	-1.1	51	5	2	3	-3.1	-0.1	3	-2	10
COc1ccc(NC(=O)c2ccc3c(=O)n4c(nc3c2)CCCCC4)cc1	0.6	-3	4	-14	-2	-2.5	2.5	-9	1	18
COc1ccc(Cl)cc1NC(=S)NCCN1CCOCC1	-1.7	-19	-13	16	6	-0.7	1.3	-1	-1	-12
COC(=O)c1cccc(/C=N/NC(N)=S)c1O	4.5	4	-16	7	6	3.2	-1.6	4	23	-4
CC1Cc2ccccc2N1C(=O)CO/N=C/c1ccc(OC(F)F)cc1 (stereo not drawn)	0.0	0	-8	-7	-3	3.4	1.0	-1	0	0
Other records
SMILES	LANA-H2B inh	ALR H2O2 inh	T cruzi inh	rRNA inh HTS	rRNA inh HTS OD600	rRNA inh HTS RFP	A1 inh	B2AR ag	Beta apoptosis	Calb FLC
COc1ccc(CCNCc2cc3ccc(C)cc3[nH]c2=O)cc1OC	0.8	-9	-13	23	12	5.0	0.0	-1	2	-3
CC(=O)c1c(C)[nH]c(C(=O)COc2ccc3c(C)cc(=O)oc3c2)c1C	0.9	nt	nt	8	3	4.6	-1.4	9	-1	nt
Cc1oc2ccc(O)cc2c1C(=O)c1ccc(Cl)cc1	1.0	10	-11	nt	nt	nt	0.7	-14	-7	-15
O=C(NCCCN1CCN(c2cccc(Cl)c2)CC1)C1(S(=O)(=O)c2ccc(Cl)cc2)CC1	3.9	nt	26	nt	nt	nt	-0.4	-3	0	13
Cc1cccc(CN2CCN(C(=O)c3cccc4ccccc34)CC2)c1	3.1	nt	3	-22	-45	7.1	0.0	-7	-4	2
CCC(C(=O)NC1CCCC1)N(C(=O)Cn1nnc(-c2ccc(OC)c(OC)c2)n1)c1cccc(O)c1 (stereo not drawn)	-5.7	-2	-6	-6	0	5.1	-0.1	1	-3	-6
COc1ccc(S(=O)(=O)N2CCC(C(=O)NCc3ccccn3)CC2)cc1C	0.0	0	-6	nt	nt	nt	-0.1	4	-5	-16

The list is partial. The share of hits here may be higher or lower than overall.
